Source: PubChem BioAssay (Center for Chemical Genomics, University of Michigan)
CDC25B CDK2 inh – primary biochemical HTRF screen for blockers of M-phase inducer phosphatase 2 binding to CDK2/cyclin A; z-score (no concentration beside the values); actives 0.72% (n = 94,000); P30305+P24941; HTRF CDC25B-CDK2/CyclinA binding, anti-His/anti-Flag; active compounds read high;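 also: score is relative to mean and SD of negative controls; strong numbers were not always called active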
TAR Tat displ – TAR RNA-Tat peptide displacers, HIV-1, primary screen, biochemical, FRET, FAM/TAMRA-labeled Tat; AID 1259389, 2018; z-score (concentration not given with the values); actives 0.6% (n = 100,000); HIV-1 TAR RNA, Tat peptide displacement FRET; active compounds read high;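 also: score is relative to mean and SD of negative controls; some compounds called inactive have numbers as strong as hits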
* marks the source's active call; other numbers are inactive results; · = not tested or not shown.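 The calls were made as follows: active = z-score from 3 up in half or more of its runs; inactive = the rest.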 Hits appear at their usual frequency; any-hit rate near 0.87%.

SMILES	CDC25B CDK2 inh	TAR Tat displ
O=S(=O)(NCCc1csc2nc(-c3ccc(F)cc3)nn12)c1ccc(Br)cc1	·	0.95
CCCC(=O)Nc1c(C(=O)OCC)[nH]c2ccc(Br)cc12	-1.29	0.64
CC1(C)Cc2ccccc2C(NC(=O)N2CCOCC2)=C1C#N	-1.47	1.97
C/C(=N\O)C(=O)Nc1ccccc1	-0.57	·
O=S(=O)(NC1CCCCC1SC1=NCCS1)c1ccc(Cl)cc1 (configuration not stated)	1.98	2.15
COc1ccc(S(=O)(=O)N2CCCC2c2cccs2)cc1 (configuration not stated)	-1.61	·
COc1cccc(N2CCN(S(=O)(=O)c3ccc(-c4cc(C(F)(F)F)on4)s3)CC2)c1	·	0.93
O=C1C2C3C=CC(CC3)C2C(=O)N1Cc1ccccc1 (configuration not stated)	-1.82	0.54
S=C(NCc1ccncc1)NCc1ccco1	0.14	·
Fc1ccc(C2CC(c3cccc4ccccc34)n3ncnc3N2)cc1 (configuration not stated)	0.51	1.21
N#Cc1cnn2c(N)c(-c3ccccc3)cnc12	0.27	4.31
Cc1nc(N2CCCCC2)c(C#N)c(C)c1[N+](=O)[O-]	-1.45	·
Cc1noc2ncn(CC(=O)NCCC(C)C)c(=O)c12	·	0.32
Cn1c(=O)c2cn3c4ccccc4ncc3c2n(C)c1=O	-0.31	·
CCc1ccc(C2CC(=O)NC3=C2C(=O)CC(C)(C)C3)cc1 (configuration not stated)	-0.71	1.51
O=C(NCc1ccc(S(=O)(=O)N2CCCC2)s1)c1cnccn1	·	0.18
Cc1nn2c(=O)cc(CSc3ccccc3NC(=O)C3CCCCC3)nc2s1	·	0.7
NC(=O)NC1CCCc2c1[nH]c1ccc(Cl)cc21 (configuration not stated)	-2.75	2.47
Cc1cn2c(=O)c(S(=O)(=O)Nc3ccc(F)c(Cl)c3)c(C)nc2s1	·	-0.45
O=C(c1ccco1)N1CCN(c2nc(-c3ccc(Cl)cc3)no2)CC1	·	-0.16
Cc1ccc(C2CC(=O)N3CN(Cc4cccnc4)CSC3=C2C#N)cc1 (configuration not stated)	5.2*	0.43
Cc1ccc(S(=O)(=O)NCC(c2ccccc2)N2CCN(Cc3ccc4c(c3)OCO4)CC2)cc1 (configuration not stated)	-0.59	2.43
Cc1ccc(S(=O)(=O)c2cn(C)c3cc(N4CCCCC4)c(F)cc3c2=O)cc1C	·	0.55
COc1ccc(OC)c(CNS(=O)(=O)c2ccc3c(c2)NC(=O)CCS3)c1	·	0.24
CC(C)(C)OC(=O)N1CCC(CNS(=O)(=O)c2cccs2)CC1	12.3	·
CCN(Cc1nc(-c2ccc(C)cc2)no1)S(=O)(=O)c1ccc(Br)cc1	-2.53	-0.18
NC(=O)C1CCN(C(=O)COCc2cc(-c3ccc4c(c3)OCO4)on2)CC1	·	0.81
CCN1C(=O)C2(/C(=C(/O)c3ccc(OC)cc3)C(=O)C(=O)N2CCCN(C)C)c2ccccc21 (configuration not stated)	1.6	0.59
COc1ccc(OC)c(C2Oc3ccccc3C3CC(c4ccccc4O)=NN32)c1 (configuration not stated)	0.46	-1.56
CSc1nn(CC(=O)Nc2ccccc2)c(N)c1S(=O)(=O)c1ccccc1	·	-0.8

Shown field by field: entries from further up
compound: CSc1nn(CC(=O)Nc2ccccc2)c(N)c1S(=O)(=O)c1ccccc1
  CDC25B CDK2 inh = ·
  TAR Tat displ = -0.8

compound: Cc1cn2c(=O)c(S(=O)(=O)Nc3ccc(F)c(Cl)c3)c(C)nc2s1
  CDC25B CDK2 inh = ·
  TAR Tat displ = -0.45

compound: COc1ccc(OC)c(CNS(=O)(=O)c2ccc3c(c2)NC(=O)CCS3)c1
  CDC25B CDK2 inh = ·
  TAR Tat displ = 0.24

compound: CCN(Cc1nc(-c2ccc(C)cc2)no1)S(=O)(=O)c1ccc(Br)cc1
  CDC25B CDK2 inh = -2.53
  TAR Tat displ = -0.18

Returning to the listing, repeating the 2 entries before the break.
SMILES	CDC25B CDK2 inh	TAR Tat displ
COc1ccc(OC)c(C2Oc3ccccc3C3CC(c4ccccc4O)=NN32)c1 (configuration not stated)	0.46	-1.56
CSc1nn(CC(=O)Nc2ccccc2)c(N)c1S(=O)(=O)c1ccccc1	·	-0.8
Cc1nc(N)nc(N/N=C/c2ccccn2)n1	-0.94	·
COC(=O)c1ccccc1Nc1c(-c2ccccc2)c(=O)c1=O	·	0.59
CC(=O)OC[C@@H](OC(C)=O)[C@@H](OC(C)=O)[C@H](C#N)OC(C)=O	-2.24	·
CCn1nccc1C1CCCN1C(=O)Nc1cc(OC)cc(OC)c1 (configuration not stated)	-2.16	0.26
COc1ccc(-c2noc(-c3nnn(-c4ccc(C)cc4C)c3N)n2)cc1	·	0.36
O=C(NCc1cccc(Cl)c1)Nc1cccs1	-1.46	-5.8
CCc1c(O)nc(SCC(=O)N2CCc3ccccc32)n(-c2ccc(F)cc2)c1=O	-1.32	2.88
O=C(NNC(=O)c1csc(Cc2ccsc2)n1)Nc1ccc(Cl)cc1	-2.18	·
CCCCCN1CC(O)=C(c2nc3ccccc3[nH]2)C1=N	-1.93	1.14
O=c1c2ccccc2nc2ccc(NCc3ccco3)nn12	-0.14	0.25
Nc1nc(NCCc2ccccc2)nc(N2CCOCC2)c1[N+](=O)[O-]	·	1.12
COc1ccc(NS(=O)(=O)c2ccc(N3CCCC3=O)cc2)cc1Cl	·	0.69
Cc1ccc(-c2cc(C(=O)Nc3ccc4ccccc4c3)c3ccccc3n2)c(C)c1	-4.48	·
C=CCN(Cc1nc(-c2ccc(C)cc2)no1)C(=O)NC1CCCCC1	-1.1	0.71
CCN1CCN(c2ncc3c(n2)CCN(Cc2cccc(F)c2)C3)CC1	·	0.8
CCOc1ccc(C2C(C(=O)OCc3ccc(OC)cc3)=C(C)NC3=C2C(=O)CC(C)(C)C3)cc1 (configuration not stated)	-1.18	2.71
CN1N=C(c2ccc3ccccc3c2)CC1c1ccc(C(F)(F)F)cc1 (configuration not stated)	-1.31	·
Cc1ccc(-n2cc(-c3ccccc3)c3c(NCCCN(C)C)ncnc32)cc1Cl	-2.14	·
CCSCCOC(=O)C1=C(C)NC2=C(C(=O)C(C(=O)OC)C(C)C2)C1c1cccc2ccccc12 (configuration not stated)	-1.02	1.54
Cc1c(NC(=O)Nc2ccccc2Cl)sc(=S)n1C	-0.13	-2.01
O=C(COc1ccc(Cl)cc1)Nc1nc2ccc3ccccc3c2s1	-0.69	·
COCCN1C(=O)C(=O)/C(=C(\O)c2ccc(OC)c(C)c2)C12C(=O)N(C)c1ccccc12 (configuration not stated)	-1.07	1.42
CCOc1ccc(-c2cc(-c3nc4c5c(C)c(C)oc5ncn4n3)[nH]n2)cc1	·	1.51
Cc1cc(NC2=CC(=O)CC(C)(C)C2)n[nH]1	-0.31	-0.71
CC(=O)N1CCc2cc(S(=O)(=O)C(C)CC(=O)Nc3cc(C)cc(C)c3)ccc21 (configuration not stated)	·	1.55
CS(=O)(=O)c1oc(-c2ccc(F)cc2)nc1S(=O)(=O)c1ccc(F)cc1	-2.05	0.06
Fc1ccc(-c2noc3ncnc(N4CCN(c5ccccc5)CC4)c23)cc1	·	-0.15
COC(=O)c1ccccc1N1CC(C(=O)O)CC1=O (configuration not stated)	-0.36	0.68
COc1ccc(-c2cnc(C)o2)cc1S(=O)(=O)Nc1ccc2c(c1)OCO2	·	2.01
O=C(NC1CCCC1)C1CCCN(S(=O)(=O)N2CCCCC2)C1 (configuration not stated)	·	0.82

Looked up by structure from the entries so far:
SMILES	CDC25B CDK2 inh	TAR Tat displ
CCSCCOC(=O)C1=C(C)NC2=C(C(=O)C(C(=O)OC)C(C)C2)C1c1cccc2ccccc12 (configuration not stated)	-1.02	1.54
Cc1ccc(C2CC(=O)N3CN(Cc4cccnc4)CSC3=C2C#N)cc1 (configuration not stated)	5.2*	0.43
COc1ccc(OC)c(CNS(=O)(=O)c2ccc3c(c2)NC(=O)CCS3)c1	·	0.24

Remaining list, next part
SMILES	CDC25B CDK2 inh	TAR Tat displ
Cc1ccc(Cn2cccc2CN)cc1	-0.2	-0.3
O=c1cc(Nc2ccc(OC(F)(F)F)cc2)c2ccccc2o1	1.61	·
CC1=C(c2ccc(F)cc2)S(=O)(=O)NC1=NC1CC1	·	0.5
CC1CCC(NC(=O)CCS(=O)(=O)c2cc3c(cc2Cl)NC(=O)CO3)CC1 (configuration not stated)	·	0.92
CCCc1nn2c(=O)cc(COc3ccc(NC(C)=O)cc3)nc2s1	-0.34	-1.86
CCn1c(=O)n(CC)c2cc(N3CCCCC3)c(NS(=O)(=O)c3cc(C)c(C)cc3C)cc21	·	0.75
COC(=O)Cc1c(C)nc2nc[nH]n2c1=O	1.17	0.54
CC(C)N(C(=O)c1ccc(-c2ccccc2F)cc1)C(C)C	-1.36	·
O=C(CCCn1c(=O)c2cccn2c2cccnc21)NC1CCCc2ccccc21 (configuration not stated)	·	1
C=CCSc1ncc(Cl)c(C(=O)Nc2sc3c(c2C(=O)NCC)CCCC3)n1	-1.92	-5.91
O=C(NCc1ccc2c(c1)OCO2)c1nnc(Cc2ccc(F)cc2)o1	-2.47	0.72
NC(=O)C1CCN(C(=O)c2ccc3nc(N4CCCCC4)sc3c2)CC1	0.58	1.56
Cc1noc(/C=C/c2ccc(S(=O)(=O)N3CCCC3)cc2)c1[N+](=O)[O-]	·	0.44
CC(C)NC(=O)CSC1=Nc2ccccc2C2=NC(c3ccccc3)C(=O)N12 (configuration not stated)	·	-0.2
Cc1cc(NC(=O)Nc2cccs2)no1	0.59	-0.14
CCOc1ccccc1Nc1cc(C)nc2nc(-c3ccco3)nn12	·	-0.49
Cn1c(=O)c2c(nc(CN3CCN(CCO)CC3)n2CCCc2ccccc2)n(C)c1=O	-0.87	0.78
O=C(NCCn1ccc2ccccc21)C(=O)c1cn(CC(=O)N2CCCC2)c2ccccc12	·	2.41
CC(C)c1ccc(C2c3c(-c4ccccc4O)n[nH]c3C(=O)N2Cc2ccncc2)cc1 (configuration not stated)	-0.62	1.44
CC12CC[C@H](CC1=O)C2(C)C	·	2.64
CCc1ccc(-n2nc(C)c3c(C)cc(=O)[nH]c32)cc1	·	1.35
Cc1cc(=O)n2[nH]c(NC(=O)C(C)Oc3ccccc3)nc2n1 (configuration not stated)	-1.17	2.29
Cc1ccc(C(C)C)c(OCCCN2C(=O)C(=O)c3cccc(C)c32)c1	0.5	0.45
CC(C)C[C@H](NC(=O)[C@H]1CCCN1C(=O)OCc1ccccc1)C(=O)O	-1.03	·
COc1ccc(C2C=C(c3ccccc3)Nc3nnnn32)cc1 (configuration not stated)	2.04	2.08
COc1ccc(NCCC#N)cc1	-2.29	·
Clc1ccccc1N1CCN(C2=NCCN2)CC1	-0.57	-0.9
CC1=C(c2ccc(C)c(C)c2)S(=O)(=O)N(Cc2ccc(C(=O)NCc3ccco3)cc2)C1=O	-0.11	1.6
N#Cc1c(F)cccc1I	0.3	·
Cc1ccc(-n2nc(C)c3c(C)c(Cl)c(=O)[nH]c32)cc1	-2.65	1.37

(next part)
Each structure is followed by: CDC25B CDK2 inh	TAR Tat displ
> O=c1cc(CSc2nnc(-c3ccc4c(c3)OCO4)o2)nc2sccn12
 : -0.76	1.63
> O=S(=O)(c1ccc(F)cc1)N1CCN(c2cccc(Cl)c2)CC1
 : 0.49	·
> COC(=O)c1ccc(C(C)N(C)C)o1 (configuration not stated)
 : -3.04	-0.84
> Cc1cc(C)c(S(=O)(=O)Nc2cccc(C3NC(=O)CS3)c2)c(C)c1 (configuration not stated)
 : ·	-0.03
> CCOC(=O)c1sc(N2C(=O)c3oc4ccc(F)cc4c(=O)c3C2c2ccc(O)cc2)nc1C (configuration not stated)
 : -1.17	-7.03
> CC(=O)N1CCCc2cc(S(=O)(=O)N3CCCC(C(=O)N4CCOCC4)C3)ccc21 (configuration not stated)
 : ·	0.54
> CCOC(=O)c1nc2c3c4c(sc3ncn2n1)COC(C)(C)C4
 : -0.72	1.26
> CCCCNc1cc(N2CCN(CCO)CC2)c2noc3c2c1C(=O)c1ccccc1-3
 : 0.83	7.7*
> O=C(NCC1CCCO1)C1CCCN(c2nnc(N3CCCC3=O)s2)C1 (configuration not stated)
 : -1.15	1.62
> COc1ccc(S(=O)(=O)N2CCN(C34CC5CC(CC(C5)C3)C4)CC2)c2ccccc12
 : -1.37	·
> Fc1ccc(Nc2nc3ccccc3c3nncn23)cc1F
 : ·	0.43
> CCOC(=O)C1CCCN(C(=O)c2sc3nc(C)nc(N4CCOCC4)c3c2C)C1 (configuration not stated)
 : -2.29	·
> CCC(=O)OCCNc1nc(SC)nc(-c2ccc(C)cc2)c1C#N
 : 0.67	0.89
> CCOC(=O)c1cc2c(Cl)cc(Cl)cc2n1C(=O)OC(C)(C)C
 : -1.42	·
> COCCN1C(=O)c2cc3occc3n2CC1(C)C(=O)NC1CCC(C)CC1 (configuration not stated)
 : ·	1.94
> Cc1ccc(C)c(CSc2nncn3c2cc2occc23)c1
 : ·	-10.3
> CC(C)=CCC/C(C)=C/COc1ccc2ccc(=O)oc2c1
 : -0.92	2.81
> CCCCN(Cc1ccco1)C(=O)CCc1c(C)nc2c3c(C)cc(C)nc3nn2c1C
 : -1.68	0.68
> NC(=O)c1cnc2sccn2c1=O
 : 0.7	2.47
> Cc1ccc(Cn2c(=O)n(Cc3ccc4c(c3)OCO4)c(=O)c3cccnc32)cc1
 : 1.15	0.85
> Cc1cc(C(=O)O)c(C)n1-c1cc(C(F)(F)F)cc(C(F)(F)F)c1
 : -0.98	·
> COc1ccc(Cn2cc(S(=O)(=O)c3ccc(OC)cc3)c(=O)c3cc(OC)ccc32)cc1
 : -2.99	-0.62
> CCN(CC)CCNC(=O)C1=C(C)C(=O)OC12CCN(C(C)=O)CC2
 : ·	0.94
> COc1ccc(Cl)cc1NC(=O)c1nn(-c2ccc(F)cc2)ccc1=O
 : 3.66	0.27
